CSC inhib – cancer stem cell viability inhibitors, primary screen, luminescence. cancer stem cell-like cells viability. inhibition, % at 7.5 µM. actives 1.1% (n = 300,000);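 active = mean at 75% or more and at least half the replicates too; tested in HMLE shEcad cells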;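 also: 0% = median of negative and 100% = median of positive control wells; the first replicate is given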
HIV Env fusion – inhibitors of HIV-1 Env-driven cell-cell fusion, primary screen, HeLa-JRFL effector, CEM21 target cells, luciferase | inhibition, % at 12.3 µM | actives 1.1% (n = 360,000) | AID 651610, 2012;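 active = mean replicate inhibition score of at least 50 and every replicate individually at or above 50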;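 also: 0% = plate neutral controls and 100% = maraviroc near 300 nM; one replicate is shown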
PABP FP inh – PABP poly(A) RNA binding inhibitors, primary screen, biochemical, fluorescence polarization, uHTS | inhibition, % at 35 µM | AID 2014, 2009 | actives 1% (n = 290,000);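 active = 50% or more with normal probe brightness, or confirmed in later tests; about a fifth of its hits are not listed in these tables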;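 also: calls also rest on retests at 20 µM and on dose response follow-up; controls were probe without protein and protein plus probe with vehicle; some compounds called inactive have numbers as strong as hits; many hits fall short of the cut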
Target sequence (P11940 whole entry, looked up): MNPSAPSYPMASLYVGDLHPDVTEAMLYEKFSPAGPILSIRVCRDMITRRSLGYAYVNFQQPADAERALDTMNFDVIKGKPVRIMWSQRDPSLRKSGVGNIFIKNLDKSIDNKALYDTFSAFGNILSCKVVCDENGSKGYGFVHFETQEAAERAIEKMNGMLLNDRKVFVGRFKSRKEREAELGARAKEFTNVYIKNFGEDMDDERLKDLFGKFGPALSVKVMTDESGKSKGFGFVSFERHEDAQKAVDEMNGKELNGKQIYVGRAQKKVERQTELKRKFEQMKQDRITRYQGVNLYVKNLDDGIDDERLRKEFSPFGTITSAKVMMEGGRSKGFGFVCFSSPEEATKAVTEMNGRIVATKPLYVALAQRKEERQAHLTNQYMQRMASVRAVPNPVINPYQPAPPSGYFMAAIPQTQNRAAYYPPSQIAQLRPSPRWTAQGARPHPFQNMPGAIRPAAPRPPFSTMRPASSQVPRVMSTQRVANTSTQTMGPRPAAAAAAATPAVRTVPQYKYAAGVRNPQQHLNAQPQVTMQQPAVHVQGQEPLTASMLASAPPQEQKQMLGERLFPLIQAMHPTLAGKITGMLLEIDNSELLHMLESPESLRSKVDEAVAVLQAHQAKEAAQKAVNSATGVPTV
eIF4H inh – human eIF4H binding inhibitors, primary screen, translation initiation inhibitor project, biochemical, uHTS, fluorescence polarization; eIF4H fluorescence polarization binding assay; inhibition, % at 35 µM; actives 0.94% (n = 290,000); AID 2012, 2009;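 active = 50% or more with normal probe brightness, or confirmed in later tests; about a fifth of its hits are not listed in these tables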;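 also: calls also rest on retests at 20 µM and on dose response follow-up; 0% = protein and probe with vehicle and 100% = probe without protein; strong numbers were not always called active; many hits fall short of the cut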
Yeast UUG start – modulators of yeast start codon fidelity, primary screen, whole organism, S. cerevisiae, single point, plate reader. actives 0.13% (n = 350,000). S. cerevisiae UUG-firefly luciferase reporter, luminescence/redox ratio. activity score, % at 18.7 µM;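 active = replicate mean at a twofold rise or more, about +100% in these data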;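 also: firefly luciferase made from a UUG start codon reports start codon fidelity; reporter light over untreated wells divided by growth signal over untreated wells; some hits fall short of that in this replicate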
MT1-MMP act inh – blockers of MT1-MMP proenzyme processing, primary screen, HT1080 RFP-PRO-GFP cells, GFP/RFP fluorescence; GFP/RFP ratio change, % at 20 µM; actives 0.061% (n = 360,000); GFP/RFP ratio fluorescence, overnight; percent of plate control window, DMSO zero;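 active = GFP/RFP ratio change of at least 30% with cell ATP level not reduced by more than half and red fluorescence within 50% of control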; also: strong numbers were not always called active
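Read-out: GFP/RFP fluorescence ratio; Test system: RFP-PRO-GFP reporter HT1080 cells; Compound dosing: single-point 20 µM compound, 1% DMSO; Times: overnight compound exposure at 37 °C.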
Rce1 inh – yeast Rce1p protease inhibitors, primary screen, biochemical, fluorescence, cell-free homogeneous. CAAX prenyl protease 2 (Saccharomyces cerevisiae (strain ATCC 204508 / S288c)), Q03530. yeast membranes, quenched prenylated peptide cleavage fluorescence. calls only. actives 0.27% (n = 290,000);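 active = fall in fluorescence gain of 50% or more versus controls, with final raw signal at or below 3038400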;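 also: plate controls were neutral control wells for no effect and wells lacking membranes for full effect; tested at 10 µM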
Target sequence (Q03530 whole entry, looked up): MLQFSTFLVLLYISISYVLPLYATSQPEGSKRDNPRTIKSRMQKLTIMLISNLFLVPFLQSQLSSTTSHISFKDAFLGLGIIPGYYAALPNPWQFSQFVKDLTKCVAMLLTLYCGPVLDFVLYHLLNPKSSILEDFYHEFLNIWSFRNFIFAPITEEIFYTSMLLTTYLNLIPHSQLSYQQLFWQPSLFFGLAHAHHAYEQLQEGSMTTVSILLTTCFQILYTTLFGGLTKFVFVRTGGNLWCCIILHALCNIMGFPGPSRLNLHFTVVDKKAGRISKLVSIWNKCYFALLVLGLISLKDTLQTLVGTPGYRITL
MT1-MMP act inh RFP – further read-out of MT1-MMP act inh, marked with its call; RFP signal change, %; measured here: RFP expression control read;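 0 = vehicle wells; hits needed this value within 50% of zero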
* hit, by the source's call; i = inactive; . = no result given. An excerpt; the hit share may differ from the screen's.

SMILES	CSC inhib	HIV Env fusion	PABP FP inh	eIF4H inh	Yeast UUG start	MT1-MMP act inh	MT1-MMP act inh RFP	Rce1 inh
Cc1ccc(N2CC(C(=O)N3CCC(C(=O)Nc4nncs4)CC3)CC2=O)cc1 (stereo not drawn)	-9	-5	0	11	2	2	2	i
O=C(Cc1nc2ccccc2[nH]1)N/N=C/c1ccccc1	1	10	-2	-6	.	5	5	i
O=C(NC(=O)c1ccc(Cl)cc1)OC1CCCCC1	-18	-23	0	1	-12	2	2	i
COc1ccc(NS(=O)(=O)c2ccc(C)c(C(=O)NCCCN3CCCC3=O)c2)cc1	.	-7	.	.	-2	4	2	.
COc1ccc(S(=O)(=O)N(C)[C@H]2C[C@H]3c4cc(-c5ccccc5)ccc4CCN3C(=O)[C@H]2[C@H](C)O)cc1	.	-90	.	.	-10	-5	-4	.
COc1ccc(C(=O)NCCc2ccc(S(N)(=O)=O)cc2)cc1OC	6	-209	2	3	-13	2	2	i
CC(=O)Nc1ccc2nc(CN3CCN(CC=C(C)C)C(CCO)C3)ccc2c1 (stereo not drawn)	-1	0	2	11	.	0	2	i
N/C(=N\O)c1ccc(N2CCN(c3ncccc3C(F)(F)F)CC2)nc1	19	-11	4	-7	.	3	-6	i
CN1CCN(C(=O)C2CCC(=O)N(CCc3cccc(F)c3)C2)CC1 (stereo not drawn)	8	.	6	5	-22	-2	-1	i
Cc1ccc(F)cc1NC(=O)CN1C(=O)NC2(CCCc3ccccc32)C1=O (stereo not drawn)	2	0	.	.	-5	-2	2	i
O=C(CCNC(=O)C1CCN(S(=O)(=O)c2ccccc2)CC1)NCc1ccccc1Cl	-13	6	-6	7	-4	-1	-1	i
COc1ccc(C(N)c2csc(NC(=O)Nc3cccc(C(F)(F)F)c3)n2)cc1 (stereo not drawn)	.	18	.	.	4	-6	-6	.
CCCN1C(=O)/C(=C/c2ccc3c(c2)OCO3)NC1=S	.	-2	13	10	.	-8	-3	i
Cc1ccc(C(=O)NNC(=O)c2cccc(Br)c2)cc1	-9	-22	-2	-16	-4	-2	-3	.
CC1=NC(C)(C)Cc2c(C)cccc21	-10	-3	-15	35	-8	5	7	i
COc1ccccc1CNc1ncnc2c1nnn2Cc1ccccc1	-3	-21	-5	-7	-3	-20	-11	i
N#C/C(=C\c1ccccc1)C(=O)NNS(=O)(=O)c1ccc(Br)cc1	-6	-7	.	.	-8	4	4	.
C/C(=N\O)c1ccn(S(=O)(=O)c2ccc(Cl)cc2)c1	-8	1	-4	-2	-8	0	2	i
COc1ccc2cc(C(=O)C3CCCN(C(=O)c4cncs4)C3)ccc2c1 (stereo not drawn)	-7	8	-8	6	-14	3	4	.
N#C/C(=C\c1ccccc1)C(=O)N(c1ccccn1)C1CCCCC1	14	22	-12	-5	20	-2	-3	i

Laid out differently: results already given
The line under a structure holds: CSC inhib	HIV Env fusion	PABP FP inh	eIF4H inh	Yeast UUG start	MT1-MMP act inh	MT1-MMP act inh RFP	Rce1 inh
COc1ccc(C(N)c2csc(NC(=O)Nc3cccc(C(F)(F)F)c3)n2)cc1 (stereo not drawn)
 : .	18	.	.	4	-6	-6	.
CCCN1C(=O)/C(=C/c2ccc3c(c2)OCO3)NC1=S
 : .	-2	13	10	.	-8	-3	i

The list goes on:
SMILES	CSC inhib	HIV Env fusion	PABP FP inh	eIF4H inh	Yeast UUG start	MT1-MMP act inh	MT1-MMP act inh RFP	Rce1 inh
CC(C)/C=C/C(=O)N1CCCC(N2CCN(c3ccccc3F)CC2)C1 (stereo not drawn)	-16	-2	-2	-12	-1	-1	-2	i
CC1=NN(C(N)=S)C(=O)C1N=Nc1cccc(Cl)c1 (stereo not drawn)	4	-51	-8	14	-38	1	0	i
N#Cc1ccc(NC(=O)NN2CCCCCC2)cc1	.	2	.	.	-4	-1	-9	.
CCc1ccc(NC(=S)N2CCN(c3cccc(OC)c3)CC2)cc1	-16	3	11	5	.	-1	0	i
COc1ccc(C2/C(=C(/O)c3ccc4c(c3)CC(C)O4)C(=O)C(=O)N2Cc2cccnc2)cc1 (stereo not drawn)	13	-3	7	1	-20	2	4	i
Nc1ccn([C@@H]2O[C@H](C(=O)N3CCSC3)[C@@H](O)[C@H]2O)c(=O)n1	.	-8	.	.	-2	1	3	.
CC(C)OCCCNC(=O)COCC(=O)Nc1ccc(OCCc2ccccc2)cc1	0	0	-8	1	3	6	-13	i
Cc1ccsc1C(=O)OCC(=O)NC1CCCC(C)C1C (stereo not drawn)	1	4	.	.	-8	0	0	.
COCOc1ccc(-c2ncc(OCCN3CCCC3=O)nc2NC(=O)c2cc3ccccc3s2)cc1	.	-3	.	.	13	3	-5	.
COc1cccc(-c2cnc(C(O)c3cc(C)ccc3C)[nH]2)c1 (stereo not drawn)	.	22	.	.	-26	-1	-1	.
O=C1N/C(=N/c2ccccn2)SC1Cc1ccccc1 (stereo not drawn)	-3	.	0	0	2	6	3	i
COc1ccc(C(=O)CCS(=O)(=O)c2ccc(C)cc2)cc1	14	-1	-1	-4	-15	0	2	i
Cc1nn(Cc2ccc(F)cc2)c2sc(C(=O)Nc3ccccc3N3CCOCC3)cc12	27	0	4	2	.	0	-4	i
CCOCCCNC(=O)CCn1nc(-c2ccc(Cl)cc2)ccc1=O	-5	32	2	3	-13	1	4	i
CCN1C(=O)[C@@H]2[C@@H](c3ccc(-c4ccc(OC)cc4)cc3)N3CCCC[C@@]3(C(=O)OC)[C@@H]2C1=O	7	-1	.	.	-7	-1	-3	i
COc1ccccc1N(CC(=O)N(c1ccccc1)C(C)C)S(=O)(=O)c1cccs1	-10	28	-7	-7	.	-2	-1	i
Cc1ccc(C)c(-c2cc(C(=O)Nc3sc(C)c(C)c3C(N)=O)c3ccccc3n2)c1	54	89*	-2	-5	-5	-5	-13	i
CC1(C)CC(=O)C2=C(C1)OC(N)=C([N+](=O)[O-])C2c1ccc(C#N)s1 (stereo not drawn)	-1	0	12	14	.	-16	12	i
CC1(Oc2ccc(Cl)cc2)CCN(Cc2cccn2-c2nccs2)C1 (stereo not drawn)	.	13	.	.	-4	0	4	.
CCOC(=O)c1c(C)sc2c1N(C(=O)CN1CCOCC1)c1cc(Cl)ccc1S2	-7	.	2	6	3	-19	-16	i
Cc1ccc(S(=O)(=O)c2nc(Nc3nccs3)sc2Cl)cc1	28	-76	0	3	.	0	-15	i
Cc1ccccc1NC(=O)CSc1ccc2nnc(-c3ccccn3)n2n1	6	6	7	-4	-26	4	0	i
CN(C)CCN1C(=O)c2oc3ccccc3c(=O)c2C1c1ccc(F)cc1 (stereo not drawn)	2	-68	-3	-2	5	1	1	i
Cc1ccc(NC(=O)CN2CCCC2c2cccn2C)c(Br)c1 (stereo not drawn)	3	.	.	.	-18	-4	-4	.
O=C(O)c1cccc(Nc2cc(Cl)c3nonc3c2[N+](=O)[O-])c1	-4	-4	0	-1	.	1	0	i
O=C(NCc1ccc2c(c1)OCO2)C1CCN(S(=O)(=O)N2CCOCC2)CC1	-1	6	17	0	-5	-3	4	i
COC(C[C@@H](O)C[C@H](O)COCc1ccccc1)OC	.	-23	-5	-7	-1	-2	-1	i
Cc1ccc2nc(-c3ccccc3)c(Cc3cccc(Cl)c3)n2c1	.	-140	.	.	-27	0	-1	.
O=C(COc1ccc(S(=O)(=O)NC2CCCCC2)cc1)NC1CCCC1	-10	13	-3	2	8	-1	-4	i
O=C(COC(=O)c1ccc2c(c1)OCCO2)NCc1ccccc1	.	.	10	9	-11	6	6	i
CCCN(CCC)C(=O)C1CCCN1S(=O)(=O)c1cccc2nsnc12 (stereo not drawn)	0	3	1	10	3	-3	1	i
O=C(NCCc1cccc(C(F)(F)F)c1)C1CCC(=O)N(CCc2cccc(F)c2)C1 (stereo not drawn)	-11	6	-4	-11	-1	1	-4	i
COc1ccc2c(c1)c1nc3n(c(=O)c1n2CC(=O)Nc1ccccc1)CCS3	1	12	.	.	-20	5	1	i
CC(O)c1cccc(NC(=O)Nc2cccc(NC(=O)Nc3cccc(C(C)O)c3)c2)c1 (stereo not drawn)	1	-20	-2	2	3	4	4	i
COc1ccc(CNCCC2(O)CC(C)N(C)CC2C)cc1OC (stereo not drawn)	-7	-14	10	-8	0	6	3	.
Nc1c(C(=O)NCc2ccccc2)sc2nc3c(cc12)C(=O)CCC3	3	-42	-1	4	-16	7	1	i
Cc1cccc(NC(=O)c2cccc(NC(=O)c3ccccc3)c2)n1	-1	-25	-11	-7	-10	-1	-1	i
CCOC(=O)CN1C(=O)N[C@@H](CCc2ccccc2)C(C(=O)OC)=C1C	14	-6	.	.	-15	0	0	i
COC(=O)c1ccc(CNC(=O)C2CCC(=O)N(Cc3cccc(F)c3)C2)cc1 (stereo not drawn)	-4	5	-2	-14	-3	0	-1	i
CCOC(=O)/C(C(=O)Nc1ccc(Cl)cc1Cl)=C1/NC(C)(C)Cc2ccccc21	-3	.	2	9	.	.	.	i

At a glance, six of the compounds above:
SMILES	CSC inhib	HIV Env fusion	PABP FP inh	eIF4H inh	Yeast UUG start	MT1-MMP act inh	MT1-MMP act inh RFP	Rce1 inh
O=C(COc1ccc(S(=O)(=O)NC2CCCCC2)cc1)NC1CCCC1	-10	13	-3	2	8	-1	-4	i
O=C(COC(=O)c1ccc2c(c1)OCCO2)NCc1ccccc1	.	.	10	9	-11	6	6	i
CCCN(CCC)C(=O)C1CCCN1S(=O)(=O)c1cccc2nsnc12 (stereo not drawn)	0	3	1	10	3	-3	1	i
O=C(NCCc1cccc(C(F)(F)F)c1)C1CCC(=O)N(CCc2cccc(F)c2)C1 (stereo not drawn)	-11	6	-4	-11	-1	1	-4	i
COc1ccc2c(c1)c1nc3n(c(=O)c1n2CC(=O)Nc1ccccc1)CCS3	1	12	.	.	-20	5	1	i
CC(O)c1cccc(NC(=O)Nc2cccc(NC(=O)Nc3cccc(C(C)O)c3)c2)c1 (stereo not drawn)	1	-20	-2	2	3	4	4	i

Later entries.
SMILES	CSC inhib	HIV Env fusion	PABP FP inh	eIF4H inh	Yeast UUG start	MT1-MMP act inh	MT1-MMP act inh RFP	Rce1 inh
CC(C)=NOc1cc(NC(=O)CCl)cc([N+](=O)[O-])c1	-6	11	-4	-2	.	3	-1	i
Cc1[nH]n(-c2ccccc2)c(=O)c1N=Nc1ccc(C(N)=O)cc1	39	-1	3	3	-10	7	2	i
Cc1cc(C)n(C(=O)c2ccc(C)c(S(=O)(=O)N3CCCC3)c2)n1	-13	.	2	-8	4	-2	6	i
CCOc1ccc(-c2[nH]ncc2-c2csc(C)n2)c(O)c1	.	5	-14	-8	.	2	4	i
COC(=O)CSc1nnc(CCc2nc3ccccc3[nH]2)n1C	.	-15	-2	1	-18	-3	-6	i
COc1ccc(NC(=S)Nc2ccc(F)cc2)cc1	-30	-17	3	-7	-17	4	1	i
Cc1ccc(NC(=O)C2CCN(S(C)(=O)=O)CC2)c(C)c1	-12	-10	6	-4	-9	-1	0	i
CCCc1c(C(=O)N/N=C/c2cccc(OCc3ccc(F)cc3)c2)nnn1-c1nonc1N	9	-3	-5	-9	-15	4	-5	i
Cc1nc2c(-c3ccc(F)cc3)c(C)nn2c(C)c1CCC(=O)N1CCC(Cc2ccccc2)CC1	17	55*	-1	-3	-14	7	-4	i
CCN(CC)S(=O)(=O)c1ccc(N2CCOCC2)c(NC(=O)C2CSC3(C)CCC(=O)N23)c1 (stereo not drawn)	-7	20	-1	1	18	0	-1	i
CCC1=C(OC(=O)N(CC)CC)N2C(=O)OC(=NCC3CC3)[C@]2(C)[C@H]2C1=CC[C@H]1C(=O)NC(=O)[C@H]12	3	-20	23	-2	-31	-1	3	i
Cc1ccc(S(=O)(=O)N2CCN(CC(=O)N/N=C\c3cccnc3)CC2)cc1	-25	1	-18	-4	.	1	7	i
Cc1nn(-c2ccccc2)c(Cl)c1/C=N/NC(=O)c1nn(C)cc1[N+](=O)[O-]	48	-29	2	-12	-3	-7	-8	i
CC(=O)N1CCC(N(CCCOC(C)C)C(=O)Nc2ccc(Cl)cc2)CC1	8	-14	.	.	-17	2	2	i
